Screening data as filed in PubChem.
Pyk2 oligo antag: antagonists of human Pyk2 oligomerization; Q14289; Q293 cells, Pyk2 FERM NanoBiT luminescence; hits give low values; z-score (the deposit names both 25 µM and 10 µM); hit rate 0.83% among 99,000; AID 1347419;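 active = Z-score of -3 or lower, scaled per plate to the spread of control and sample wells; inactive = z-score above -3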;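 also: negative z-score means lost luminescence so less FERM oligomerization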
Target sequence (Q14289 whole entry, looked up): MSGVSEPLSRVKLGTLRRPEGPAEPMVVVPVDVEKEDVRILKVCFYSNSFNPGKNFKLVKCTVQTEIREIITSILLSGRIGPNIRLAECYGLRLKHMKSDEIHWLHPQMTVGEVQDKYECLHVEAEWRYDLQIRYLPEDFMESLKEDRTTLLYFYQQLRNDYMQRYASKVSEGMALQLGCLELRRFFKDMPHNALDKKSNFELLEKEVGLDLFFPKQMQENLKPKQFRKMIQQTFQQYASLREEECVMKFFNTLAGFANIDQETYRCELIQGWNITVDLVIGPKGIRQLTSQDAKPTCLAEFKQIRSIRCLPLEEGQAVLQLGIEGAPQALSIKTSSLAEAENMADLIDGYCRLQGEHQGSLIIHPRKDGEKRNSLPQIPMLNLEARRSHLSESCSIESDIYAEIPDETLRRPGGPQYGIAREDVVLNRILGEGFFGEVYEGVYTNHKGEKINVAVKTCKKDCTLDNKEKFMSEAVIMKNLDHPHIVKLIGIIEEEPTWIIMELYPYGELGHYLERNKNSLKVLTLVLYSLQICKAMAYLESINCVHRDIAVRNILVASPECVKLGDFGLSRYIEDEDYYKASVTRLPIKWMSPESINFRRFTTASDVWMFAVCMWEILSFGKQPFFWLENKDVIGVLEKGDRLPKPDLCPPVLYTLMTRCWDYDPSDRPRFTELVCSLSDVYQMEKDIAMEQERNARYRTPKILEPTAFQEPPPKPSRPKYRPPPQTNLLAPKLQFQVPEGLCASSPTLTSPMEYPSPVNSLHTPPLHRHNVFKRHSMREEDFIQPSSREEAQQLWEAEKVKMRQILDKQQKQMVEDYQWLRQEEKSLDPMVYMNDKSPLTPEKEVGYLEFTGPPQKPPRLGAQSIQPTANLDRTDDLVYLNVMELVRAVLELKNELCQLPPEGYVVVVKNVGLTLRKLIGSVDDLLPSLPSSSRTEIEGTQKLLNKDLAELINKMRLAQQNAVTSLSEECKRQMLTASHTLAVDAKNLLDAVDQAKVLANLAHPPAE
PTPN22 act: activators of human LYP (PTPN22) phosphatase. recombinant LYP, DiFMUP fluorescence; 0 = plate median, 100 = signal doubled. activation, % at 2 µM. hit rate 0.11% among 96,000;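 active = activation at 2 µM above a set limit, the mean plus 5 SD, cut at about 37% in these data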
PTPN22 inh 2: inhibitors of human LYP (PTPN22) phosphatase; recombinant LYP catalytic domain, DiFMUP fluorescence; Q9Y2R2; inhibition, % at 2 µM; AID 640; hit rate 0.21% among 96,000;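 active = inhibition at 2 µM at or above a set limit, the screen mean plus 3 SD, cut at about 24% in these data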;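 also: 0% = DMSO with enzyme and 100% = enzyme fully blocked by orthovanadate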
cytoskel mod: alters cytoskeleton assembly in HUVEC cells; HUVEC TNFa F-actin phalloidin imaging, high content; inhibition, % at 2 µM; hit rate 0.18% among 91,000; AID 836;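 active = inhibition above the batch mean plus 3 SD and confirmed as a hit by visual image inspection, cut at about 30% in these data, passing the limit was not always enough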; also: strong numbers were not always called active
VCAM1 TNFa inh: reduces TNF alpha induced VCAM1 expression in HUVEC; HUVEC TNFa-induced VCAM-1 immunofluorescence, high-content imaging; inhibition, % at 2 µM; hit rate 0.48% among 95,000;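 active = inhibition above the batch mean plus 3 SD, with images confirmed as a hit by eye, cut at about 37% in these data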;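 also: 0% = TNF-stimulated DMSO wells and 100% = unstimulated control wells; not every result past the cut was called active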
TNFa cytotox: toxic to HUVEC cells under TNF alpha stimulation | HUVEC TNFalpha-stimulated, Hoechst cell count, imaging | cell count reduction, % at 2 µM | hit rate 0.17% among 93,000 | AID 848;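 active = cell count reduction exceeding the screen mean by over 5 SD, scaled to untreated wells per plate, cut at about 78% in these data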;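 also: cells counted after 24 h of TNF alpha exposure following the 1 h pretreatment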
IL1B cytotox: HUVEC cytotoxicity counter-screen, IL-1B stimulated; cell count reduction, % at 2 µM; HUVEC cell count loss, Hoechst imaging; AID 845; hit rate 0.41% among 94,000;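 active = cell count reduction more than 3 SD above the screen-wide mean, cut at about 70% in these data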;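 also: normalized per plate to untreated control cells as the no-loss baseline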
ERa SRC1 inh: ER-alpha (human) coactivator binding inhibition | P03372 | TR-FRET ER-alpha LBD / SRC-1 peptide, estradiol-bound | inhibition, % at 25.6 µM | hit rate 1.7% among 86,000 | AID 629; in the data active = inhibition above about 50%;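 also: 0% = receptor plus peptide control and 100% = peptide only without receptor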
Numbers without * were called inactive; . = no result given; [ ] = dose if it differs, or a comment.

nr	Structure	PTPN22 act	TNFa cytotox	Pyk2 oligo antag	ERa SRC1 inh	PTPN22 inh 2	VCAM1 TNFa inh	cytoskel mod	IL1B cytotox
1	COc1ccc(-c2nc(C(N)=O)c3[nH]c(=O)n(-c4cccc(Cl)c4)c3n2)cc1OC	-11	1	-1.4	84*	9	1	4	.
2	CCOC(=O)Cn1c(=O)n(CC(=O)OCC)c2ccccc21	4	-2	-0.52	22	-4	1	-16	-21
3	C=CCn1c(SCC(=O)Nc2ccccc2)nc2scc(-c3cccs3)c2c1=O	-1	0	-0.76	.	-1	-4	-2	-11
4	O=c1oc(-c2ccccc2Cl)nc2ccsc12	4	-8	0.12	15	-5	9	9	-16
5	CCOC(=O)c1cnn(-c2ncnc3c2cnn3Cc2ccccc2)c1N	0	-37	.	19	4	18	31	-2
6	COC(=O)c1noc(-c2ccc(C)cc2)n1	8	-28	1.1	0[fluorescence artefact?]	-6	2	.	0
7	C/C(=N/NC(=O)c1cccc(C)c1)c1c(O)cc(C)oc1=O	-1	6	-0.17	-2	-1	10	8	10
8	CCCc1cc(-c2[nH]ncc2-c2ccc3c(c2)OCCCO3)c(O)cc1O	0	-27	-2.5	0[fluorescence artefact?]	-1	-10	-12	-13
9	CC(=O)Nc1ccc(C(=O)CSc2nnc3scc(-c4ccccc4)n23)cc1	-5	-1	0.62	41[fluorescence artefact?]	4	12	7	16
10	O=C(CSc1ccc2c(c1)OCCO2)Nc1ccc(Cl)cn1	-10	-14	0.6	4	9	-28	-4	-3
11	CCc1ccc(C2C(C(=O)O)c3ccccc3C(=O)N2C)cc1 (configuration not stated)	5	16	-0.62	3	-3	7	1	20
12	CCC(=O)c1ccc(OCC(=O)N2CCc3cc(OC)c(OC)cc3C2)cc1	11	-15	1.5	3	-7	4	15	9
13	COc1ccc(OCC(=O)Nc2cccc3ncccc23)cc1	1	-12	0.51	12	-3	-7	-12	-68
14	CS(=O)(=O)N(CC(=O)NCCC1=CCCCC1)c1ccc2c(c1)OCO2	1	-2	0.12	-4	2	14	-9	-14
15	CN1CC(=O)NC1=NC(=O)c1ccc(Cl)c(S(=O)(=O)N2CCCCCC2)c1	-10	-32	0.08	18	7	5	7	0

Compound profiles, from the list above:
CCc1ccc(C2C(C(=O)O)c3ccccc3C(=O)N2C)cc1 (configuration not stated) as listed: PTPN22 act = 5; TNFa cytotox = 16; Pyk2 oligo antag = -0.62; ERa SRC1 inh = 3; PTPN22 inh 2 = -3; VCAM1 TNFa inh = 7; cytoskel mod = 1; IL1B cytotox = 20
CCCc1cc(-c2[nH]ncc2-c2ccc3c(c2)OCCCO3)c(O)cc1O as listed: PTPN22 act = 0; TNFa cytotox = -27; Pyk2 oligo antag = -2.5; ERa SRC1 inh = 0[fluorescence artefact?]; PTPN22 inh 2 = -1; VCAM1 TNFa inh = -10; cytoskel mod = -12; IL1B cytotox = -13

The list goes on:
nr	Structure	PTPN22 act	TNFa cytotox	Pyk2 oligo antag	ERa SRC1 inh	PTPN22 inh 2	VCAM1 TNFa inh	cytoskel mod	IL1B cytotox
16	COc1ccc(CCN2CC(O)=C(c3nc4ccccc4c(=O)[nH]3)C2=N)cc1OC	4	.	-0.89	-10	-3	-3	7	-27
17	CCCCNC(=O)COC(=O)c1ccc(NS(=O)(=O)c2ccc3c(c2)OCCO3)cc1	1	-30	0.2	.	-3	12	5	-4
18	Fc1ccc(Cn2nnnc2CN2CCN(C3CCCC3)CC2)cc1	7	-27	-0.11	-6[fluorescence artefact?]	-10	-2	-8	-3
19	CCn1c(Cc2ccccc2)nnc1SCC(=O)Nc1ccc(C)cc1	-5	-4	-0.94	-7	7	10	-5	-38
20	Cc1cc(NC(=O)CSc2nc(C3CCCCC3)nc3ccccc23)no1	10	-10	0.98	2[fluorescence artefact?]	-14	17	3	-10
21	COCCn1c(=NC(=O)CSC(C)=O)sc2cc(F)ccc21	-12	5	1	-2	13	3	-4	-8
22	C=CCn1c(CCNC(=O)c2ccccc2F)nnc1SCC(=O)Nc1nc(C)cs1	6	-14	1.8	-15	-5	6	6	9
23	CCOC(=O)Cn1c(C)nc2ccccc21	-9	10	1.2	-8	8	6	-29	14
24	CSc1ccccc1N=CC1=C(O)CC(C)(C)CC1=O	10	-8	-0.33	.	-6	6	6	-20
25	CC(C)=CC(=O)Nc1nnc(-c2cccnc2)s1	-3	-14	-0.5	-2	1	5	19	-10
26	O=C(O)c1ccc(NC(=S)NC(NC(=O)c2ccco2)C(Cl)(Cl)Cl)cc1 (configuration not stated)	-5	-17	1.3	5	5	-6	-7	.
27	CCOC1(NC(=O)c2ccccc2)C(C)=CC(=O)C=C1C	-3	-3	0.46	-2	2	6	-6	5
28	COc1ccccc1NC(=O)CSc1ccc2nnc(-c3cccnc3)n2n1	-8	-9	.	2	7	5	-1	-26
29	c1ccc(N(c2ccccc2)c2nc(N3CCCC3)nc(-n3ccnc3)n2)cc1	-13	-16	-1.3	7[fluorescence artefact?]	14	1	5	12
30	C=CCn1c(SCC(=O)NCC2CCCO2)nc2scc(-c3ccco3)c2c1=O (configuration not stated)	-7	-5	1.4	19	7	14	-4	-188

Grouped by structure: the entries above containing a COOH group.
nr	Structure	PTPN22 act	TNFa cytotox	Pyk2 oligo antag	ERa SRC1 inh	PTPN22 inh 2	VCAM1 TNFa inh	cytoskel mod	IL1B cytotox
11	CCc1ccc(C2C(C(=O)O)c3ccccc3C(=O)N2C)cc1 (configuration not stated)	5	16	-0.62	3	-3	7	1	20
26	O=C(O)c1ccc(NC(=S)NC(NC(=O)c2ccco2)C(Cl)(Cl)Cl)cc1 (configuration not stated)	-5	-17	1.3	5	5	-6	-7	.

Quoted at random: two compounds from above, in no set order.
nr	Structure	PTPN22 act	TNFa cytotox	Pyk2 oligo antag	ERa SRC1 inh	PTPN22 inh 2	VCAM1 TNFa inh	cytoskel mod	IL1B cytotox
4	O=c1oc(-c2ccccc2Cl)nc2ccsc12	4	-8	0.12	15	-5	9	9	-16
15	CN1CC(=O)NC1=NC(=O)c1ccc(Cl)c(S(=O)(=O)N2CCCCCC2)c1	-10	-32	0.08	18	7	5	7	0

Continuation.
nr	Structure	PTPN22 act	TNFa cytotox	Pyk2 oligo antag	ERa SRC1 inh	PTPN22 inh 2	VCAM1 TNFa inh	cytoskel mod	IL1B cytotox
31	C=CCn1c(CCNC(=O)c2ccccc2F)nnc1SCC(=O)Nc1nc2ccccc2s1	4	-19	-0.04	0	-2	-4	13	-139
32	Cc1cc2cc(C(c3nnnn3Cc3ccco3)N3CCc4ccccc43)c(=O)[nH]c2cc1C (configuration not stated)	-3	-26	0.47	36	2	8	-2	-13
33	C(=N\Nc1ncnc2sc3c(c12)CCC3)/c1cccs1	-10	18	2.1	.	12	24	2	6
34	COc1ccc(C2SC[C@@H](C(=O)O)N2C(C)=O)cc1 (some centres not stated)	-11	-7	-0.07	-14	13	16	-10	-5
35	O=C(Nc1ccc2c(c1)Cc1ccccc1-2)c1ccc(Br)o1	4	-41	0.24	5	-4	-26	-1	-27
36	O=C(CNC(=O)Cn1cnc2sc3c(c2c1=O)CCCC3)NCc1ccccn1	0	-28	0.22	-6	-3	13	29	-4
37	CCOC(=O)c1sc(NC(=O)CSc2nc(C)cc(C)n2)c(C#N)c1C	-9	-2	-0.78	2	13	1	7	-6
38	Cc1c(C=O)c2ccccn2c1C(=O)c1ccncc1	-5	-7	-0.33	7	8	7	-11	4
39	COc1ccc(-n2nc(C(=O)N3CCC(C#N)CC3)c3c4ccccc4n(C)c3c2=O)cc1	-1	55	.	.	-2	15	-19	29
40	O=c1oc(-c2cccnc2)nc2ccccc12	0	9	-0.73	28[fluorescence artefact?]	-2	1	23	28
41	CCn1c2ccccc2c2cc(NC(=O)CSc3nnc(-c4cccc(F)c4)o3)ccc21	-6	0	1.6	.	5	4	-13	-9
42	Cc1nn(-c2ccccc2)c2[nH]c(=O)c(CNCc3ccc4c(c3)OCO4)cc12	11	5	-1.2	0[fluorescence artefact?]	-12	16	29	-20
43	CCCC(=O)Nc1cc(-c2nc3ncccc3o2)ccc1C	-4	1	-0.07	-10	4	-6	10	19

Only part of the results is shown; rates above refer to the full screens.
